# Source: PubChem BioAssay
# Mtb bLac sens – beta-lactam sensitization of Mtb H37Rv, H37Rv | M. tuberculosis H37Rv growth with meropenem, percent inhibition; hits of this screen are not shown here | inhibition, % at 25 µM | 330,000 tested, 0.27% active;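 active = about 74% or more and at least 40 points above the plate without the antibiotic, then above 30% in a dose series; inconclusive = first-round hits that could not be retested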;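 also: growth measured after seven days incubation then overnight dye step; 0% = bacteria only wells and 100% = bacteria with antibiotic; twin plates without the antibiotic show which effects depend on it; some results filed as inactive read as strong as hits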
# Arbovirus anti – antivirals against arbovirus infection, primary screen, cell-based, full library, 10K replicate subset | arbovirus infection cell-based antiviral screen | 200,000 tested, 0.37% active | inhibition, % at 10 µM | AID 1251, 2008;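 active = inhibition from about 30%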;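 also: bluetongue infection of BSR cells; cell survival read as ATP light after 72 h; 0% = infected wells without compound and 100% = uninfected wells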
# YopH inh – YopH tyrosine phosphatase inhibitors, primary screen, biochemical, fluorescence Ex485/Em525; inhibition, %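 (about 10 µM by stock and volumes)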; 140,000 tested, 0.16% active;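 active = inhibition of 50% or more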;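 also: controls were vehicle for no effect and minimum signal wells for full effect; inactives centre near -20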
# Mtb growth – M. tuberculosis H37Rv growth inhibitors, H37Rv strain (AID 1626) | M. tuberculosis H37Rv growth inhibition; higher % means a stronger effect | inhibition, % at 10 µM; hits with a dose series show IC50 in µM | 220,000 tested, 0.95% active;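 active = confirmed in a dose series; inconclusive = inhibition above 80% but not taken into the dose series; inactive = below 80% or under 30% at every dose of the series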;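 also: bacteria incubated seven days before Alamar blue readout; 0% = bacteria only wells and 100% = bacteria with antibiotic wells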
# RecA intein inh – Mtb RecA intein splicing inhibitors, primary screen, biochemical, fluorescence, HTS. cell-free RecA intein splicing. inhibition, %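 (about 9 µM by stock and volumes)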. 290,000 tested, 0.75% active. AID 2221, 2009; in the data active = inhibition above about 30%; inconclusive = no clear call, values can overlap the other calls;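 also: 0% = vehicle wells and 100% = reference inhibitor control wells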
# Target sequence (P9WHJ3 whole entry, looked up): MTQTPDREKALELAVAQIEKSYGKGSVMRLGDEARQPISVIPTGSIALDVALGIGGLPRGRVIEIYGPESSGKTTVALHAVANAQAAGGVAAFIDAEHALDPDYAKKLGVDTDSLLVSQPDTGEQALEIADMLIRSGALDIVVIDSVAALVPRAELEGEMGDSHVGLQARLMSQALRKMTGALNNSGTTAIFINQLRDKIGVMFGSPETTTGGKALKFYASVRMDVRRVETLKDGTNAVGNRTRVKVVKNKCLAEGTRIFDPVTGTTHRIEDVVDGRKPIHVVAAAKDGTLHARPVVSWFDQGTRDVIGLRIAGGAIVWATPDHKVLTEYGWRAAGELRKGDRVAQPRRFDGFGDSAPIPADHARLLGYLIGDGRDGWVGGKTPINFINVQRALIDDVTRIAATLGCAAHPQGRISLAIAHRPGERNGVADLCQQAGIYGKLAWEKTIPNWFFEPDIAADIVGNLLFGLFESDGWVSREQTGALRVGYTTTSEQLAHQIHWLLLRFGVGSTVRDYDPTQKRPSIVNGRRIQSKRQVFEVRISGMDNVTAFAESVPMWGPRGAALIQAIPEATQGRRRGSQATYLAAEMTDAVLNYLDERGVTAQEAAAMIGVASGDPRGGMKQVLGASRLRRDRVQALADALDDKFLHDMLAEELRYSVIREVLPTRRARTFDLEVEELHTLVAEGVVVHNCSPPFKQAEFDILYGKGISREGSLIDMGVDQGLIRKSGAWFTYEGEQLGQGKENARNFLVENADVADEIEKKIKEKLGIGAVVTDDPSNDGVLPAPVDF
# Arbovirus anti repeat – second read-out of Arbovirus anti, no call of its own (marks repeat the call); inhibition, %; measured here: 10K subset replicate screen; many hits read low in the repeat;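 first of two repeat runs on a subset; 0% = infected and 100% = uninfected wells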
# An asterisk follows results filed as active; u = inconclusive; x = not tested or not shown.
SMILES,Mtb bLac sens,Arbovirus anti,YopH inh,Mtb growth,RecA intein inh,others
C/C(CCc1ccc2c(c1)OCO2)=N\N=C1\NC(=O)CC(C(=O)Nc2ccccc2F)S1 (stereo not given),-1,-6,x,0%,-1.5,
CN(C)S(=O)(=O)c1ccc(C(=O)Nc2ccc3c(c2)CCC3)cc1,0,x,x,x,4.4,
CCN(CCNC(=O)C1CCCN(S(=O)(=O)c2cnc[nH]2)C1)c1ccccc1 (stereo not given),-1,-3,-42,-11%,-2.9,Arbovirus anti repeat=9
FC(F)(F)c1nnc2c(Sc3ccccn3)nc3ccccc3n12,-8,-1,-29,-8%,15,
Oc1ccccc1/C=N/Nc1ccnc(SCc2ccccc2)n1,100,-10,-2,u,x,
CCc1ccccc1Nc1nc2ccccc2[nH]1,2,x,x,x,4.0,
O=C(O)c1c2c(nc3ccc(S(=O)(=O)N4CCC(C(=O)NC5CCCC5)CC4)cc13)CCCCC2,2,-2,-12,-11%,-3.2,
OC(COc1ccc(Cl)cc1)CN1CCC(Cc2ccccc2)CC1 (stereo not given),5,x,x,x,0.6,
Cc1ccc(-n2cc(CNCCc3ncc(C)[nH]3)c(-c3ccc(F)cc3)n2)cc1,99,-34,x,77%,1.7,
S=C(NCCCN1CCOCC1)NC1CCCC1,1,7,x,5%,-1.0,
CCn1c(SCC(=O)N2CCCC(C)C2)nc2c1c(=O)n(C)c(=O)n2C (stereo not given),-1,x,x,x,1.5,
C(/CCc1ccccc1)=N\n1cnnc1,2,2,18,0%,0.1,Arbovirus anti repeat=0
Fc1ccc(Nc2nc(N3CCOCC3)nc(N3CCOCC3)n2)cc1Cl,-2,x,x,x,-2.9,
COc1ccc(S(=O)(=O)N2CCN(c3ccccc3OC)CC2)cc1,7,x,x,x,-2.0,
Cc1nn(-c2ccccc2)c(C)c1/C=N/NC(=O)c1cc(-c2ccc(Br)s2)[nH]n1,99,-11,-47,63%,21,
O=S(=O)(c1ccc(Cl)cc1)N1CCC2(CC1)CO2,-3,17,x,3%,3.3,
CCOC(=O)Oc1ccc2oc(=O)cc(C)c2c1,81,-2,67*,5%,-3.6,
O=C(C[n+]1ccccc1)N/N=C/c1cc(Br)cc(Br)c1O,19,x,x,x,-2.8,
O=C(CN(Cc1ccccc1)C(=O)c1cccc([N+](=O)[O-])c1)Nc1c(Cl)cc(Cl)cc1Cl,u,-10,0,-4%,1.1,
Cc1cc(C)nc(-n2nc(C)c3c(C(F)(F)F)cc(=O)[nH]c32)n1,-18,-4,-17,-6%,0.1,
Cc1ccc(CN2CCN(C)CC2)c(C)c1,2,-1,-30,-5%,x,
COc1ccc(CCN2CC3=C(C2=O)C(c2ccccc2)NC(=O)N3C)cc1OC (stereo not given),-1,3,-14,-8%,x,
O=C(O)c1ccccc1P(=O)(c1ccccc1)c1ccccc1,-7,4,x,3%,-2.6,
NC(=O)c1ccc(NCc2ccco2)c([N+](=O)[O-])c1,-2,5,-42,9%,2.2,
CC1CCCN(C(=O)c2cc(F)c(F)cc2Cl)C1 (stereo not given),-4,7,-17,2%,1.1,

# Later entries
SMILES,Mtb bLac sens,Arbovirus anti,YopH inh,Mtb growth,RecA intein inh,others
CC(CCc1ccc(O)cc1)NCCC(c1ccccc1)c1ccccc1 (stereo not given),82,x,x,x,3.9,
CCOC(=O)c1ccc(NC(=O)CC2S/C(=N/N=C/c3c[nH]c4ccccc34)NC2=O)cc1 (stereo not given),6,31*,-23,10%,0.2,
Cn1c(SCCS(=O)(=O)c2ccc(Cl)cc2)nnc1-c1ccccc1,-4,0,-35,4%,-1.4,
CC(C)(C)NC(=O)c1cccc(NC(=O)CSc2ccc(Cl)cc2)c1,-2,-7,-31,3%,-0.7,
COc1ccc(Oc2nccc(OC)c2C#N)cc1,8,-2,-42,1%,-1.6,
CCOc1cc(/C=C2\SC(=Nc3ccccc3)N(c3ccccc3)C2=O)ccc1OCC(=O)O,5,11,-16,3%,8.3,
CC1=C(C(=O)Nc2ccccc2)C(c2ccncc2)n2nnnc2N1 (stereo not given),-1,2,-19,-5%,2.9,
Cc1ccc2c(C(=O)N3CCN(c4ccccc4)CC3)cc(-c3cccnc3)nc2c1C,-4,-33,x,9%,0.4,
COc1ccc(S(=O)(=O)n2nc(-n3c(C)ccc3C)c3c(F)cccc32)cc1OC,4,x,x,8%,14,
COc1ccc(/C=C/c2c(-c3ccc(OC)cc3)sc3ccc(N4CCOCC4)cc23)cc1,-3,x,x,x,-2.1,
NC(=O)COc1ccc2oc(-c3ccccc3)cc(=O)c2c1,x,0,x,2%,0.5,
COC(=O)/C(=N/Nc1ccccc1OC)N1CCCc2ccccc21,-9,x,x,4%,0.1,
Cc1cc(C)n2cc(CSc3ncn[nH]3)nc2n1,-6,4,x,3%,-2.3,
Oc1ccccc1-c1nc(NCCN2CCOCC2)c2ccccc2n1,64,-24,-7,-1%,x,
CCCCOc1ccc(-c2nnn(CC(=O)Nc3ncc(CC(=O)OCC)s3)n2)cc1,-2,19,3,8%,8.8,
O=CNCCc1nc2ccccc2n1CCc1ccccc1,3,x,x,x,1.9,
Cc1cc(C(=O)NNC(=O)c2cccc(Cl)c2)no1,-2,x,x,-4%,5.2,
CCCCNC(=O)COC(=O)c1cc(S(=O)(=O)N2CCCCCC2)ccc1OC,0,2,7,-7%,-0.1,
Cc1ccc(S(=O)(=O)c2c(N)n(NC(=O)c3ccccc3C)c3nc4ccccc4nc23)cc1,1,-24,-27,-8%,-1.9,
COc1ccc(NC(=O)CS(=O)c2ccc(Br)cc2)cc1 (stereo not given),42,x,x,x,1.3,
CCC1CCCCN1CCCNC(=O)CNC(=O)c1nn(-c2ccc(OC)c(Cl)c2)c(=O)c2ccccc12 (stereo not given),-5,x,x,x,0.6,
CN1CCN(C(=O)c2ccc(-n3cccn3)nc2)CC1,2,16,x,-6%,-2.0,
COC(=O)COc1ccc(C2NC(=O)NC(C)=C2C(=O)NCc2ccccc2)cc1OC (stereo not given),-8,-1,x,-5%,-0.8,
C(CCCN1CCCCC1)CCN1CCCCC1,-2,x,x,x,-2.5,
Cc1nccc2[nH]c(=O)c(C(=O)NC(C)CCc3ccccc3)cc12 (stereo not given),-6,-27,x,4%,-0.3,

# Entries above that contain an aryl thioether with sulfur outside any ring (6):
SMILES,Mtb bLac sens,Arbovirus anti,YopH inh,Mtb growth,RecA intein inh,others
FC(F)(F)c1nnc2c(Sc3ccccn3)nc3ccccc3n12,-8,-1,-29,-8%,15,
Oc1ccccc1/C=N/Nc1ccnc(SCc2ccccc2)n1,100,-10,-2,u,x,
CCn1c(SCC(=O)N2CCCC(C)C2)nc2c1c(=O)n(C)c(=O)n2C (stereo not given),-1,x,x,x,1.5,
Cn1c(SCCS(=O)(=O)c2ccc(Cl)cc2)nnc1-c1ccccc1,-4,0,-35,4%,-1.4,
CC(C)(C)NC(=O)c1cccc(NC(=O)CSc2ccc(Cl)cc2)c1,-2,-7,-31,3%,-0.7,
Cc1cc(C)n2cc(CSc3ncn[nH]3)nc2n1,-6,4,x,3%,-2.3,

# Fetched by structure from the entries so far:
SMILES,Mtb bLac sens,Arbovirus anti,YopH inh,Mtb growth,RecA intein inh,others
CCOc1cc(/C=C2\SC(=Nc3ccccc3)N(c3ccccc3)C2=O)ccc1OCC(=O)O,5,11,-16,3%,8.3,
Cn1c(SCCS(=O)(=O)c2ccc(Cl)cc2)nnc1-c1ccccc1,-4,0,-35,4%,-1.4,
Cc1cc(C)n2cc(CSc3ncn[nH]3)nc2n1,-6,4,x,3%,-2.3,
COC(=O)COc1ccc(C2NC(=O)NC(C)=C2C(=O)NCc2ccccc2)cc1OC (stereo not given),-8,-1,x,-5%,-0.8,
COc1ccc(/C=C/c2c(-c3ccc(OC)cc3)sc3ccc(N4CCOCC4)cc23)cc1,-3,x,x,x,-2.1,
CN1CCN(C(=O)c2ccc(-n3cccn3)nc2)CC1,2,16,x,-6%,-2.0,
C(CCCN1CCCCC1)CCN1CCCCC1,-2,x,x,x,-2.5,

# (more compounds)
SMILES,Mtb bLac sens,Arbovirus anti,YopH inh,Mtb growth,RecA intein inh,others
O=C(C1=C(O)C(=O)N(CCN2CCOCC2)C1c1cccc([N+](=O)[O-])c1)c1cccs1 (stereo not given),-1,x,x,x,-0.8,
CC(CN1CCCCC1)OC(=O)COc1ccc(Br)cc1 (stereo not given),-11,x,x,x,-0.7,
CCOC(=O)c1c(C)[nH]c(C(=O)COC(=O)c2[nH]c(C)c(C(C)=O)c2C)c1C,7,3,-22,-1%,1.4,
O=C(CCC1CCCN(Cc2ccc3c(c2)CCO3)C1)NCc1ccc(F)c(F)c1 (stereo not given),-2,-3,x,0%,3.1,
COc1ccc(/C=N/NC(=O)c2cc(OC)c(OC)c(OC)c2)cc1CN1CCc2cc(OC)c(OC)cc2C1C (stereo not given),-7,-17,x,0%,1.5,
CCOc1cc2[nH]c(=S)n(Cc3ccc(C(=O)O)cc3)c(=O)c2cc1OCC,-1,x,x,x,-2.3,
C=CCNC(=O)C1CC(=O)N(c2ccc(OCC(=O)N3CCCC3)cc2)C1 (stereo not given),3,x,x,x,-2.7,
CCCCN(CC)CCNC(=O)Cn1cnc2sc(C)c(S(=O)(=O)N3CCOCC3)c2c1=O,-7,5,10,-5%,-4.1,Arbovirus anti repeat=-2
Cc1ccccc1NC(=O)Cn1nnc2ccccc21,-1,7,x,5%,-1.3,
COC(=O)c1ccc(CSc2ccc3nnc(-c4ccccc4)n3n2)o1,-4,6,-47,10%,2.2,
COc1cccc(N(CC(=O)NC2CCCCC2)C(=O)CCC(=O)Nc2nccs2)c1,0,x,x,x,-3.8,
COc1ccc(N(CC(=O)Nc2ccc3c(c2)OCO3)S(=O)(=O)c2ccccc2)cc1OC,-5,x,x,-4%,2.9,
Cc1cccc(OCC(=O)Nc2cc(S(=O)(=O)N3CCCCC3)ccc2N2CCN(C)CC2)c1,-1,2,x,1%,-0.9,
COC(=O)c1sc2ccccc2c1-n1cccc1C(=O)C(=O)Nc1ccc(C)cc1,-7,-5,11,6%,7.3,
CN(C)CCNC(=O)c1ccc2c(c1)NC(=O)c1ccccc1S2,3,x,x,x,5.8,
CC1(C)Cc2c(c(N3CCOCC3)nc3sc(C(=O)Nc4ccccc4)c(N)c23)CO1,-5,x,x,x,-6.5,
O=S(=O)(Nc1ccc(N=Nc2ccccc2)cc1)c1ccccc1,-2,-3,-18,3%,19,
O=C1CC(C(=O)Nc2ccc(Cl)cc2)n2ncnc2N1 (stereo not given),3,15,x,0%,0.5,
O=C(c1ccc(OC2CCN(Cc3ccccn3)CC2)cc1)N1CCCCCC1,1,-1,x,0%,-0.7,
COc1ccc(C(=O)N(Cc2nc(-c3ccc(C)cc3)no2)C(C)C)cc1OC,-1,3,-26,5%,4.1,Arbovirus anti repeat=-6
O=C(Nc1ccc(N2CCOCC2)cc1)c1cccc(S(=O)(=O)N2CCCCCC2)c1,2,-7,x,9%,-2.9,
Cc1ccc(/C=C/C(=O)Nc2sc(C)c(C)c2C(=O)OC(C)C)o1,6,2,-24,2%,1.2,
COc1ccc(NS(=O)(=O)c2cccc(C(=O)NCC(c3ccco3)N3CCCCC3)c2)cc1 (stereo not given),-6,x,x,x,5.3,
Cc1ccc(C2=NNC(=O)C(c3c[nH]c4ccccc34)C2)cc1 (stereo not given),-4,20,x,6%,-1.2,
CCCCCC1CC(CC(=O)Nc2nncs2)C(=O)O1 (stereo not given),-12,2,-2,-7%,-0.6,
COc1ccc(N2C(=O)CC(S/C(N)=N/N=C/c3ccnc4ccccc34)C2=O)cc1 (stereo not given),-1,-10,-27,-1%,-2.2,
O=C(O)C(Cc1c[nH]c2ccccc12)N1CCS(=O)(=O)CC1 (stereo not given),4,-1,x,-1%,26,
COC(=O)c1ccc(NC(=O)COc2coc(CN3CCc4ccccc43)cc2=O)cc1,-6,x,x,x,-2.3,
CN(CC(=O)Nc1cccc(F)c1)C(=O)c1ccc(N2CCCCC2)c([N+](=O)[O-])c1,1,x,x,x,-1.4,
O=C(Cn1ncc2c3ccccc3n(Cc3ccccc3F)c2c1=O)NCC1CCCO1 (stereo not given),-7,x,x,x,0.7,

# 3 compounds from above, sorted by SMILES length, descending:
SMILES,Mtb bLac sens,Arbovirus anti,YopH inh,Mtb growth,RecA intein inh,others
COc1ccc(NS(=O)(=O)c2cccc(C(=O)NCC(c3ccco3)N3CCCCC3)c2)cc1 (stereo not given),-6,x,x,x,5.3,
CCCCN(CC)CCNC(=O)Cn1cnc2sc(C)c(S(=O)(=O)N3CCOCC3)c2c1=O,-7,5,10,-5%,-4.1,Arbovirus anti repeat=-2
O=C(O)C(Cc1c[nH]c2ccccc12)N1CCS(=O)(=O)CC1 (stereo not given),4,-1,x,-1%,26,

# These rows are one share of the data, so the mix of outcomes need not match the whole.
